PD-1 reverse act: activators reversing PD-1 mediated T-cell inhibition, primary screen, luminescence, primary human CD4 T cells, PD-L1 beads. 29,000 tested, under 10 active. activation, % (no concentration beside the values). AID 2316, 2010. CellTiter-Glo 96 h;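 active = replicate mean of 50% or more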;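 also: 0% = median vehicle wells and 100% = positive control; 100 nL library stock added to about 50 µL; numbers are from one replicate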
Shh pathway inh: Hedgehog pathway signaling inhibitors, primary screen, luminescence, Shh-LIGHT2 cells, Gli-luciferase. AID 2313, 2010. 22,000 compounds, 2.1% hits. Shh-LIGHT2 Gli-luciferase reporter, 30 h. inhibition, % (test concentration not listed);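 active = replicate mean of 65% or more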;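 also: pathway switched on by Shh-conditioned medium diluted 1 in 25 in low serum; 100 nL library stock added to about 40 µL; 0% = median of neutral wells and 100% = positive control level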
YB-1 expr inh: inhibitors of YB-1 gene expression, primary screen, cell-based, fluorescence; U2OS, qRT-PCR YB-1 vs CDIP delta delta Cp, 16 h; hits give high values; zero = DMSO, each unit about twofold; delta delta Cp (YB-1 minus CDIP) (test concentration not listed); 30,000 compounds, 0.37% hits;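 active = delta delta Cp rounded down to an integer at or above 3, about 3 SD of DMSO wells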;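 also: higher means less YB-1 transcript or more CDIP transcript relative to DMSO; stock transfer was 100 nL into about 100 µL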
MITF inh: inhibitors of MITF, primary screen, MITF inhibitor project, cell-based, luminescence | AID 2240, 2010 | inhibition, % (no concentration beside the values) | 37,000 compounds, 0.28% hits | TRPM1 promoter luciferase, 24 h;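 active = most replicates at 85% or more, or half of them and the mean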;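 also: human melanocyte line stably carrying TRPM1 promoter luciferase reporter; 0% = vehicle wells and 100% = a positive control; the first replicate is given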
Starred values were filed as active, the others as inactive; . = no result given. These rows are one share of the data; the hit share may differ from the screen's.

SMILES | PD-1 reverse act | Shh pathway inh | YB-1 expr inh | MITF inh
CSc1ccccc1NC(=O)CN(Cc1ccccc1)S(C)(=O)=O | -0.2 | . | . | -1
C[C@H]1CN([C@@H](C)CO)C(=O)Cc2cc(NC(=O)NC3CCCCC3)ccc2O[C@H]1CN(C)S(=O)(=O)c1ccc(Cl)cc1 | -1.9 | -43 | -0.089 | 45
CC(C)NC(=O)N(C)C[C@@H]1Oc2c(NC(=O)C3CCOCC3)cccc2C(=O)N([C@@H](C)CO)C[C@H]1C | 1.1 | -32 | -0.3 | 6
COc1c2c(cc3occ(-c4ccc5c(c4)OCO5)c(=O)c13)OC(C)(C)C=C2 | . | 80* | -0.15 | 37
CNC[C@@H]1Oc2ccc(NC(=O)c3ccncc3)cc2C(=O)N([C@@H](C)CO)C[C@@H]1C | 1.6 | -43 | -0.0036 | -3
Cc1[nH]c2ccccc2c1Sc1ccccc1 | -2.7 | 71* | -0.081 | 49
CN(C(=O)COc1cc(C(F)(F)F)n(C)n1)c1ccccc1 | 0.1 | -2 | -0.59 | -13
C[C@H](CO)N1C[C@H](C)[C@H](CN(C)Cc2ccc(C(F)(F)F)cc2)Oc2ccc(N(C)C)cc2CC1=O | 1.0 | 24 | 0.11 | -3
C=CCn1c(-c2cccs2)nc(-c2ccccc2)c1-c1ccccc1 | -5.4 | 24 | 0.37 | 27
CCC(Sc1n[nH]c(=O)[nH]c1=O)C(=O)O (stereo not drawn) | 0.2 | . | -0.25 | -3
Cc1ccc(S(=O)(=O)Nc2cccc3c2O[C@H](CN(C)Cc2ccccc2)[C@H](C)CN([C@H](C)CO)C3=O)cc1 | 0.9 | 9 | 0.059 | -4
COc1ccc([N+](=O)[O-])cc1NC(=O)c1cc(-c2ccccn2)nc2ccc(C)cc12 | -0.4 | . | . | 13

Exported with two lines to a compound: entries from further up.
Results follow in this order: PD-1 reverse act | Shh pathway inh | YB-1 expr inh | MITF inh
- C[C@H]1CN([C@@H](C)CO)C(=O)Cc2cc(NC(=O)NC3CCCCC3)ccc2O[C@H]1CN(C)S(=O)(=O)c1ccc(Cl)cc1
    -1.9 | -43 | -0.089 | 45
- CC(C)NC(=O)N(C)C[C@@H]1Oc2c(NC(=O)C3CCOCC3)cccc2C(=O)N([C@@H](C)CO)C[C@H]1C
    1.1 | -32 | -0.3 | 6
- COc1c2c(cc3occ(-c4ccc5c(c4)OCO5)c(=O)c13)OC(C)(C)C=C2
    . | 80* | -0.15 | 37
- CNC[C@@H]1Oc2ccc(NC(=O)c3ccncc3)cc2C(=O)N([C@@H](C)CO)C[C@@H]1C
    1.6 | -43 | -0.0036 | -3
- Cc1[nH]c2ccccc2c1Sc1ccccc1
    -2.7 | 71* | -0.081 | 49
- CN(C(=O)COc1cc(C(F)(F)F)n(C)n1)c1ccccc1
    0.1 | -2 | -0.59 | -13
- C[C@H](CO)N1C[C@H](C)[C@H](CN(C)Cc2ccc(C(F)(F)F)cc2)Oc2ccc(N(C)C)cc2CC1=O
    1.0 | 24 | 0.11 | -3

The listing continues:
SMILES | PD-1 reverse act | Shh pathway inh | YB-1 expr inh | MITF inh
CNc1nc(NC(C)C)nc(Oc2ccc(=O)[nH]n2)n1 | 1.3 | . | . | 3
CC(C)NC(=O)N(C)C[C@@H]1Oc2c(NS(=O)(=O)c3cccs3)cccc2C(=O)N([C@@H](C)CO)C[C@@H]1C | . | 9 | -0.54 | -8
C=C(C)C(=O)O[C@H]1[C@H]2C(=C)C(=O)O[C@@H]2C[C@@H](C)[C@@H]2O[C@@H]2C(=O)[C@](C)(O)[C@@H]1OC(C)=O | -20 | 85* | 0.12 | -10
O=c1[nH]c2cc([N+](=O)[O-])c([N+](=O)[O-])cc2[nH]c1=O | 2.1 | -59 | -0.49 | -15
C[C@H]1CN([C@@H](C)CO)C(=O)c2cc(N(C)C)ccc2O[C@H]1CN(C)Cc1ccncc1 | -1.1 | . | 0.0032 | 1
CS(=O)(=O)N(CC(=O)Nc1cc(Cl)ccc1Cl)c1ccc(I)cc1 | 0.6 | . | . | 22
COc1ccc(NC(=O)c2oc3ccccc3c2NC(=O)Cc2coc3cc(C)cc(C)c23)cc1 | 1.0 | . | . | 24
C[C@@H]1CN([C@H](C)CO)C(=O)c2cccc(NS(C)(=O)=O)c2O[C@@H]1CN(C)Cc1ccc(C(=O)Nc2ccccc2N)cc1 | -0.8 | . | -0.6 | 1
C[C@@H]1CN([C@@H](C)CO)C(=O)Cc2cc(NC(=O)Cn3cnnn3)ccc2O[C@@H]1CN(C)C | 1.2 | -17 | -0.32 | -22
NS(=O)(=O)c1ccc(NC(=O)CN2CCN(Cc3ccccc3)CC2)cc1 | 1.1 | . | . | -18
C[C@H](CO)N1C[C@H](C)[C@H](CN(C)C(=O)Nc2ccccc2)Oc2ccc(NC(=O)Nc3ccc(C(F)(F)F)cc3)cc2CC1=O | . | 27 | 0.019 | 8
O=C(NCc1cccnc1)C(=O)Nc1ccccc1F | 0.7 | . | . | -67
Cc1ccc(-c2nc3cc(Cl)cc(Cl)c3o2)cc1NC(=O)COc1ccccc1 | 0.0 | . | . | 47
CCN1C2=C(C(=O)CCC2)C(c2cccc(O)c2)C2=C1CCCC2=O | 0.0 | 1 | -0.065 | 12
C[C@H](CO)N1C[C@H](C)[C@@H](CN(C)S(=O)(=O)c2ccc(Cl)cc2)Oc2c(NC(=O)c3nc4ccccc4s3)cccc2C1=O | -6.1 | 5 | -0.14 | 25
C[C@@H]1CN([C@H](C)CO)C(=O)c2cccc(NC(=O)c3ccc(-c4nccs4)cc3)c2O[C@@H]1CN(C)S(=O)(=O)c1cn(C)cn1 | 3.8 | 23 | -0.73 | -4
CC(C)NC(=O)N(C)C[C@@H]1Oc2c(NC(=O)c3ccncc3)cccc2C(=O)N([C@H](C)CO)C[C@H]1C | 0.4 | 0 | -0.18 | -13
COc1cc(C2NC(=S)NC(c3ccccc3)=C2C(=O)c2ccccc2)cc(I)c1OCCO (stereo not drawn) | -3.9 | . | . | -22
O=C(Nc1nc(-c2ccc(Cl)c(Cl)c2)cs1)C1CC1 | -1.2 | . | -0.52 | 6
C[C@@H]1CN([C@@H](C)CO)C(=O)Cc2cc(NS(=O)(=O)c3cccs3)ccc2O[C@@H]1CN(C)C(=O)Nc1ccc(F)cc1 | -1.1 | -7 | 0.14 | -5
C[C@H]1CN([C@@H](C)CO)C(=O)c2cccc(NC(=O)CCCCCC(=O)Nc3ccccc3N)c2O[C@@H]1CN(C)CC1CC1 | -1.3 | . | 0.17 | 41
CC[N+](C)(CC)Cc1ccccc1 | 2.0 | . | -0.62 | -2
Cc1ccc2c(c1)c1c(n2CC(O)CN2CCOCC2)C(=O)CCC1 (stereo not drawn) | 1.2 | . | . | 1
COc1ccc(NC(=O)N(C)C[C@H]2Oc3ccc(NC(=O)C4CCCCC4)cc3C(=O)N([C@@H](C)CO)C[C@H]2C)cc1 | -1.7 | -10 | -0.01 | -9

Part of the list above, with tabs:
canonical_smiles	PD-1 reverse act	Shh pathway inh	YB-1 expr inh	MITF inh
C[C@H]1CN([C@@H](C)CO)C(=O)c2cc(N(C)C)ccc2O[C@H]1CN(C)Cc1ccncc1	-1.1	.	0.0032	1
CS(=O)(=O)N(CC(=O)Nc1cc(Cl)ccc1Cl)c1ccc(I)cc1	0.6	.	.	22

Additional structures follow.
SMILES | PD-1 reverse act | Shh pathway inh | YB-1 expr inh | MITF inh
C[C@@H]1CN([C@H](C)CO)C(=O)c2cccc(N(C)C)c2O[C@@H]1CN(C)Cc1ccc(C(=O)O)cc1 | . | 12 | -0.12 | -1
COC(=O)c1ccc(NC(=O)CSc2nnc(-c3ccc(Br)cc3)o2)cc1 | 1.4 | . | . | 1
Cc1ccc(OCC(=O)Nc2cccc(-c3nc4cc(Cl)ccc4o3)c2C)cc1C | -3.2 | . | . | -18
C[C@@H]1CN([C@@H](C)CO)C(=O)c2cccc(NC(=O)Nc3ccc4c(c3)OCO4)c2O[C@H]1CN(C)Cc1ccc(Cl)c(Cl)c1 | -7.1 | 12 | 0.3 | 41
CC(C)(C)C1CCc2c(sc(NC(=O)CN3CCOCC3)c2C#N)C1 (stereo not drawn) | 0.5 | . | . | -27
C[C@H](CO)N1C[C@H](C)[C@@H](CN(C)Cc2ccc(C(=O)O)cc2)Oc2ccc(NC(=O)Cn3cnnn3)cc2C1=O | 1.2 | -15 | -0.17 | -3
Cc1ccc(S(=O)(=O)Nc2ccc3c(c2)C(=O)N([C@@H](C)CO)C[C@@H](C)[C@H](CN(C)Cc2ccc(C(F)(F)F)cc2)O3)cc1 | -0.8 | 8 | -0.12 | 25
C[C@H](CO)N1C[C@H](C)[C@H](CN(C)Cc2ccc(C(F)(F)F)cc2)Oc2c(NC(=O)C3CCCCC3)cccc2C1=O | . | 0 | -0.31 | 15
Cc1ccc(S(=O)(=O)N(C)C[C@H]2Oc3c(NC(=O)Nc4c(C)noc4C)cccc3C(=O)N([C@H](C)CO)C[C@@H]2C)cc1 | 1.0 | -19 | 0.23 | -10
CC1CC(OC(=O)C(O)c2ccccc2)CC(C)(C)N1C (stereo not drawn) | . | -6 | 0.13 | 11
Cc1noc(C)c1NC(=O)N(C)C[C@H]1Oc2ccc(NC(=O)NC(C)C)cc2C(=O)N([C@H](C)CO)C[C@H]1C | 1.1 | 20 | -0.33 | 0
Cc1noc(C)c1NC(=O)N(C)C[C@H]1Oc2c(NC(=O)Nc3ccc(C(F)(F)F)cc3)cccc2C(=O)N([C@H](C)CO)C[C@@H]1C | . | -13 | -0.14 | -12
C[C@H](CO)N1C[C@H](C)[C@@H](CN(C)C(=O)Nc2ccccc2)Oc2c(NS(C)(=O)=O)cccc2C1=O | 0.7 | -3 | -0.28 | -7
Cn1c(SCC(=O)Nc2cc(Cl)c(Cl)cc2Cl)nnc1-c1ccccc1 | 0.4 | . | . | 31
CC(C)NC(=O)N(C)C[C@@H]1Oc2ccc(NC(=O)NC3CCCCC3)cc2CC(=O)N([C@H](C)CO)C[C@H]1C | . | 10 | -0.1 | -7
C[C@@H]1CN([C@@H](C)CO)C(=O)Cc2cc(N(C)C)ccc2O[C@@H]1CN(C)S(=O)(=O)c1cn(C)cn1 | . | -21 | 0.18 | 2
C[C@@H]1CN([C@@H](C)CO)C(=O)c2cc(NC(=O)NC3CCCCC3)ccc2O[C@@H]1CN(C)S(=O)(=O)c1ccccc1 | 1.6 | . | -0.088 | -13
CCOC(=O)CSc1nc(-c2ccccc2)nc2sc3c(c12)CCCC3 | -3.0 | . | . | -66
Cc1cccc(N(C)C(=S)Oc2ccc3ccccc3c2)c1 | 1.8 | -29 | 0.8 | -17
CN1C(=O)C(O)(CC(=O)c2ccccn2)c2cc(Br)ccc21 (stereo not drawn) | -2.2 | . | . | -6
O=C(Nc1sc2c(c1C(=O)NCc1cccnc1)CCCC2)c1ccc([N+](=O)[O-])cc1 | 1.6 | . | . | 48
Cc1ccc(C)c(NC(=O)CCCN2C(=O)c3ccccc3C2=O)c1 | 0.0 | . | . | -20
C[C@H](CO)N1C[C@H](C)[C@H](CN(C)C(=O)Nc2ccc(C(F)(F)F)cc2)Oc2ccc(NC(=O)C3CC3)cc2CC1=O | . | . | -1.1 | 0
COc1ccc(S(=O)(=O)N(C)C[C@H]2Oc3ccc(NC(=O)Nc4c(C)noc4C)cc3C(=O)N([C@H](C)CO)C[C@@H]2C)cc1 | 4.7 | . | 0.47 | 4
CSc1ccc(N=CN2C(=O)c3ccccc3C2=O)cc1 | 2.5 | -26 | -0.63 | -23
Cc1noc(C)c1S(=O)(=O)Nc1cccc2c1O[C@H](CN(C)S(=O)(=O)c1cn(C)cn1)[C@H](C)CN([C@@H](C)CO)C2=O | 1.6 | -36 | 1.4 | 5
O=C(NCc1ccccc1)C1Sc2nnc(-c3ccccc3)n2NC1c1ccc(F)cc1 (stereo not drawn) | -0.1 | -4 | -0.31 | 4
COc1cc(/C=N/n2c(C)nc3c(ncn3-c3ccccc3)c2=O)cc(OC)c1OC | 0.4 | -14 | 0.44 | 3
CC(=O)Nc1ccc(NC(=O)c2ccnn2C)cc1 | 0.5 | -13 | -0.41 | -4
COc1ccc(CN(C)C[C@H]2Oc3ccc(NS(=O)(=O)c4ccc(C)cc4)cc3C(=O)N([C@H](C)CO)C[C@H]2C)cc1 | 0.8 | 32 | 0.14 | -9
COc1ccc(CN(C)C[C@H]2Oc3ccc(NS(=O)(=O)c4ccc(OC)cc4)cc3CC(=O)N([C@H](C)CO)C[C@H]2C)cc1 | . | -12 | -0.21 | 8
NC(=O)CSc1nc2ccccc2n1Cc1ccccc1F | -1.1 | . | . | 9
COc1ccc(NC(=O)N(C)C[C@@H]2Oc3c(NC(=O)Nc4ccc(C(F)(F)F)cc4)cccc3C(=O)N([C@@H](C)CO)C[C@H]2C)cc1 | -3.5 | -76 | 0.15 | 27
C[C@@H]1CN([C@@H](C)CO)C(=O)c2cc(NC(=O)C3CCCCC3)ccc2O[C@@H]1CN(C)Cc1ccncc1 | 0.6 | . | 2.2 | -9
Cc1ccc(S(=O)(=O)N(C)C[C@@H]2Oc3c(NC(=O)c4cc(C)nn4C)cccc3C(=O)N([C@@H](C)CO)C[C@H]2C)cc1 | 0.3 | 12 | -0.16 | -9

Bioassay records (PubChem)
